# Mtb growth: M. tuberculosis H37Rv growth inhibitors, H37Rv strain (AID 1626); M. tuberculosis H37Rv growth inhibition; higher % means a stronger effect; 0.95% of 220,000 active; one-dose inhibition, % at 10 µM; IC50 in µM for titrated hits;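 active = confirmed in a dose series; inconclusive = inhibition above 80% but not taken into the dose series; inactive = below 80% or under 30% at every dose of the series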;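 note: bacteria incubated seven days before Alamar blue readout; 0% = bacteria only wells and 100% = bacteria with antibiotic wells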
# Arbovirus inh: antivirals against arbovirus infection, primary screen, cell-based, full library, 10K replicate subset | arbovirus infection cell-based antiviral screen | inhibition, % at 10 µM | 0.37% of 200,000 active | AID 1251, 2008;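 active = inhibition from about 30%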;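 note: bluetongue infection of BSR cells; cell survival read as ATP light after 72 h; 0% = infected wells without compound and 100% = uninfected wells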
# YopH inh: YopH tyrosine phosphatase inhibitors, primary screen, biochemical, fluorescence Ex485/Em525. YopH tyrosine phosphatase [Yersinia enterocolitica]. inhibition, %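 (about 10 µM by stock and volumes)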. 0.16% of 140,000 active. AID 898, 2007;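 active = inhibition of 50% or more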;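 note: controls were vehicle for no effect and minimum signal wells for full effect; inactives centre near -20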
# Mtb bLac sens: beta-lactam sensitization of Mtb H37Rv, H37Rv; M. tuberculosis H37Rv growth with meropenem, percent inhibition; hits of this screen are not shown here; inhibition, % at 25 µM; 0.27% of 330,000 active; AID 434955, 2010;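 active = about 74% or more and at least 40 points above the plate without the antibiotic, then above 30% in a dose series; inconclusive = first-round hits that could not be retested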;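 note: growth measured after seven days incubation then overnight dye step; 0% = bacteria only wells and 100% = bacteria with antibiotic; twin plates without the antibiotic show which effects depend on it; some results filed as inactive read as strong as hits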
# RecA splice inh: Mtb RecA intein splicing inhibitors, primary screen, biochemical, fluorescence, HTS. Protein RecA (Mycobacterium tuberculosis (strain ATCC 25618 / H37Rv)), P9WHJ3. inhibition, %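 (about 9 µM by stock and volumes)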. 0.75% of 290,000 active. cell-free RecA intein splicing. AID 2221, 2009; in the data active = inhibition above about 30%; inconclusive = no clear call, values can overlap the other calls;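 note: 0% = vehicle wells and 100% = reference inhibitor control wells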
# Target sequence (P9WHJ3 whole entry, looked up, canonical isoform): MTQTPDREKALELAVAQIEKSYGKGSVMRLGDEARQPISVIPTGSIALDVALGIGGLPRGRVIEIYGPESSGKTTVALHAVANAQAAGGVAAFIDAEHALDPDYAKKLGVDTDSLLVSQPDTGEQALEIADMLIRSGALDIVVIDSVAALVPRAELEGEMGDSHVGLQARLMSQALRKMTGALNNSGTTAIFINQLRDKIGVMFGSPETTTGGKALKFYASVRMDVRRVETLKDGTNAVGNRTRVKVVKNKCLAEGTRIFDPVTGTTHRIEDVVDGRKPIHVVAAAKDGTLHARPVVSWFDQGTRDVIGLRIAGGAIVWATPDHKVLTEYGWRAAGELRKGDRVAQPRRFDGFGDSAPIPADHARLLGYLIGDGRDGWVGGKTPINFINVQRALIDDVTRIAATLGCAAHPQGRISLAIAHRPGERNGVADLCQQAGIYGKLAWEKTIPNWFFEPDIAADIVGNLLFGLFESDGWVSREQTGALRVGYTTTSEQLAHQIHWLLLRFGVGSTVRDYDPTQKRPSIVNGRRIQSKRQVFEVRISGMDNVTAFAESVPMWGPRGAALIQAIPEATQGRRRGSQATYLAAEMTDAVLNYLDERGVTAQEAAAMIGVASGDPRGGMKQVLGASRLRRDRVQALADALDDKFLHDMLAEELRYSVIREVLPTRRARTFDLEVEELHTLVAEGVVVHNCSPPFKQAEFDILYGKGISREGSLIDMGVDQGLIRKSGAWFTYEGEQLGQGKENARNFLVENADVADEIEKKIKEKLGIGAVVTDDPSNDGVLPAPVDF
# Arbovirus inh repeat: second read-out of Arbovirus inh, no call of its own (marks repeat the call); inhibition, %; measured here: 10K subset replicate screen; many hits read low in the repeat;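 first of two repeat runs on a subset; 0% = infected and 100% = uninfected wells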
# * = called active by the depositor; u = inconclusive; x = not tested or not shown. Only part of the results is shown; the hit share may differ from the screen's.
SMILES,Mtb growth,Arbovirus inh,YopH inh,Mtb bLac sens,RecA splice inh,others
Cc1cc(C)c(C(=O)/C=C/c2ccco2)c(=O)[nH]1,-10%,-3,x,-14,1.4,
O=C(CSc1nnc(-c2cccs2)n1Cc1ccco1)c1ccc2c(c1)OCO2,7%,0,-18,-1,2.0,
Cc1nc(N2CCOCC2)nc2c1CCCC2,-4%,-3,-3,0,-1.4,
CCCC(=O)N1c2ccc(-c3csc(N)n3)cc2CC1C (stereo not drawn),4%,-10,1,-3,-4.7,
O=C(CCN1CCCCC1)Nc1cccc(Br)c1,x,x,x,-2,-0.7,
CCOC(=O)C1(Cc2ccccc2)CCN(Cc2cnc(N3CCOCC3)s2)CC1,-5%,-1,x,3,-2.6,
Clc1ccc(Oc2nnnn2-c2ccccc2)cc1,-2%,-4,-12,-9,0.9,
CCOC(=O)C(=N/O)/C(C)=N/NC(=O)C(=O)Nc1ccc(Cl)cc1,-2%,x,x,-4,2.3,
Cc1cc(C(=O)COC(=O)COc2ccc(C#N)cc2)c(C)n1C1CC1,x,x,x,-2,-0.6,
CN(C)S(=O)(=O)c1cccc2c1C(=O)c1ccccc1C2=O,-7%,-10,-36,0,3.0,
Cc1ccc2c(c1)N(C(C)C(=O)NCc1cccs1)C(=O)CO2 (stereo not drawn),-4%,2,x,-12,5.3,
Cc1c(C=Nc2ccc(S(=O)(=O)CCO)cc2)c(O)[nH]c(=O)c1C#N,x,x,x,3,2.8,
C#C[C@@]1(O)CCC2C3CCC4=C/C(=N/OCC(=O)NC(CCC(N)=O)C(=O)O)CC[C@]4(C)C3CC[C@@]21C (stereo partly drawn),x,x,x,-3,-0.1,
CC1CC(C)CN(C(=O)COC(=O)CNS(=O)(=O)/C=C/c2ccccc2)C1 (stereo not drawn),-4%,0,-1,-2,2.9,
c1ccc(Cn2nnnc2C(c2ccccn2)N2CCOCC2)cc1 (stereo not drawn),-8%,1,29,3,6.2,
CCOC(=O)Cn1nc(C)c(NC(=O)COc2ccccc2[N+](=O)[O-])c1C,1%,7,x,-5,0.3,
Cc1ccc(N(C(=O)CNC(=O)c2ccco2)C(C(=O)NC2CCCCC2)c2cccnc2)cc1C (stereo not drawn),x,x,x,-1,-0.8,
Cc1ccc(N2CC(C(=O)Nc3ccc(C)c(S(=O)(=O)N(C)C)c3)CC2=O)cc1 (stereo not drawn),3%,-7,x,-11,-1.2,
CN(CCOc1ccccc1)C(=O)C1CCC(=O)N(CCN2CCOCC2)C1 (stereo not drawn),x,x,x,0,3.0,
CSc1ccccc1NC(=O)C1C2CCC(C2)C1C(=O)O (stereo not drawn),5%,3,x,-6,-4.4,
ClCc1csc(-c2ccc(Cl)cc2)n1,78%,-1,-23,9,1.3,
CCCc1cc2c(=O)c(-c3ccc4c(c3)OCCO4)c(C)oc2cc1OS(C)(=O)=O,14%,-5,-12,x,7.5,
N#Cc1ccc(/C=N/NC(=O)CCc2ccc(S(=O)(=O)N3CCOCC3)cc2)cc1,-1%,-2,-18,-6,-1.4,
COCCn1c(=NC(=O)c2ccccc2[N+](=O)[O-])sc2cc(S(C)(=O)=O)ccc21,5%,-7,-20,3,-6.9,
CCn1c(SCC(=O)NCc2ccc3c(c2)OCO3)nc2c(c1=O)SCC2,x,x,x,4,0.6,
Cn1c(=O)c([N+](=O)[O-])c(-n2ccnc2)c2ccccc21,-5%,-6,x,-5,66*,
Cn1c(-c2ccncc2)nc2ccccc21,x,x,x,-4,0.5,
CN(CC(=O)Nc1ccccc1Br)C(=O)CNC(=O)c1ccc(Oc2ccccc2)cc1,x,x,x,-8,5.0,
CSc1ccccc1NC(=O)CN(Cc1ccc(Cl)cc1)S(C)(=O)=O,1%,5,-20,-6,0.3,
CC(C)CC(NC(=O)C1CCC(=O)N1)C(=O)NC(CC(C)C)C(=O)N1CCCC1C(N)=O (stereo not drawn),x,x,x,-2,-1.5,
CC(=O)N/N=C(\C)C1COc2ccccc2O1 (stereo not drawn),-2%,x,x,11,-1.2,
CC(C)NCC(O)COc1cccc2[nH]ccc12 (stereo not drawn),-9%,8,x,-1,x,
Cc1ccc(C#N)c(SCc2nnc(-c3ccc(Cl)cc3)o2)n1,7%,-10,-31,u,-2.8,
CC(C)[C@H](NC(=O)N1CCC(Cc2ccccc2)CC1)C(=O)O,x,x,x,-4,0.6,
CCN(CC)S(=O)(=O)c1ccc(S(=O)(=O)N(Cc2ccccn2)Cc2ccco2)cc1,-4%,-7,-27,-7,0.1,
O=S1(=O)N=C(N(Cc2cccs2)c2ccc(O)cc2)c2ccccc21,0%,1,x,-5,-3.1,
COC(=O)Nc1nc(C)c(C(=O)N(C)C)s1,-5%,2,-52,4,-3.6,
Cc1nc(N)nc(N)c1CCCc1ccc(Cl)c(Cl)c1,x,x,x,78,6.1,
COc1ccc2[nH]c3c(c2c1)CCN1C(=O)N([C@@H](C)C(=O)NCc2c(F)cccc2Cl)C(=O)[C@]31C,x,x,x,-3,2.1,
CC(CC(=O)NCc1ccc(Cl)cc1)c1ccccc1 (stereo not drawn),x,x,x,43,3.8,
Cc1cc(Br)ccc1NC(=O)CNC(=O)CN(C)Cc1nc2ccccc2c(=O)[nH]1,-11%,6,-40,0,-1.1,
CS/C(=N\S(=O)(=O)c1cccs1)Nc1ccc(N2CCOCC2)cc1,-1%,13,-25,3,0.4,
Cc1cc(C(=O)COC(=O)C2=COCCO2)c(C)n1-c1cccc(F)c1,x,x,x,74,-1.2,
CC(=O)c1cccc(NC(=O)N2CCCC2C(=O)NCc2ccc3c(c2)OCO3)c1 (stereo not drawn),-2%,-3,x,8,-5.4,
COc1ccc(OCCC(=O)OCC(=O)Nc2ccc(S(=O)(=O)N3CCOCC3)cc2)cc1,1%,4,x,-1,-2.6,
O=C(NC1CCCCC1)NC1CCN(S(=O)(=O)Cc2ccccc2)CC1,10%,3,-25,-6,1.4,
CC(c1ccco1)N(C(=O)c1ccc(Cl)s1)c1ccccn1 (stereo not drawn),1%,x,-40,4,-3.2,
O=C(NNS(=O)(=O)c1ccccc1C(F)(F)F)c1cc2ncc(C(F)(F)F)cc2s1,-8%,x,x,-11,0.0,
O=C(NCCN1CCOCC1)c1ccc(NS(=O)(=O)c2ccccc2)cc1,x,x,x,1,-2.0,
COc1ccccc1NC(=O)CCC(=O)OCc1cccc([N+](=O)[O-])c1,3%,4,x,-6,0.1,
# Further results follow.
SMILES,Mtb growth,Arbovirus inh,YopH inh,Mtb bLac sens,RecA splice inh,others
Cc1ccc(-n2nnnc2SCC#N)cc1,-1%,-1,x,-6,0.5,
O=C1NNC(c2ccccc2)=N/C1=C\c1ccccc1,1%,x,x,1,10,
CCOc1ccc(Cl)cc1CNCCNCCO,-4%,-7,-32,5,9.0,
O=C(Nc1nnc(-c2ccc(Cl)cc2)o1)C1=COCCO1,6.4µM*,2,-7,98,-0.4,
CC(Sc1ccc(Cl)cc1)C(=O)NCC(c1ccco1)N1CCCCC1 (stereo not drawn),x,x,x,-1,-0.2,
COc1ccc(S(=O)(=O)N2CCN(CC(=O)Nc3cccc(OC)c3)CC2)cc1,x,x,x,4,-1.8,
Clc1cccc(CN2COc3c(cc(Cl)c4cccnc34)C2)c1,u,-32,-52,96,x,
O=C(OC(C(=O)NC1CCCC1)c1cccnc1)C1=Cc2ccccc2OC1 (stereo not drawn),-4%,-1,-6,-5,2.0,
C=C1C[C@]2(O)[C@@]3(C)CCC(=O)C(C)(C)C3=C(O)C(=O)[C@@]2(C)[C@@H]2C(=O)O[C@@](C)(C(=O)OC)C(=O)[C@@]12C,-10%,11,x,-6,-4.6,
Oc1ccc(Cl)cc1-c1cc(C(F)(F)C(F)F)nc(-c2ccccc2)n1,0%,1,-24,4,-4.5,
CCOP(=O)(OCC)c1nc(-c2ccc(C)cc2)oc1NCc1ccccc1,16%,-8,-37,13,1.0,
CCC(=O)NCCNc1nc2cc(C)cc(C)c2cc1C#N,-3%,-5,x,-4,-21,
O=C(NNc1nc2ccc(F)cc2s1)c1cccc(F)c1,u,-29,x,98,-0.3,
O=C(NCc1ccco1)c1cc(=O)c2ccccc2o1,-5%,17,x,-1,0.3,
O=C(Cn1ccc([N+](=O)[O-])n1)NCc1cccnc1,-6%,7,x,-10,-3.9,
O=C(N/N=C/c1cc(Br)cc(Br)c1O)c1cccc(N2CCCC2=O)c1,-4%,-26,x,2,1.7,
O=C(NC1CCCCC1)C(c1ccc(Cl)cc1)N(C(=O)c1cnccn1)c1ccc2c(c1)OCO2 (stereo not drawn),65%,-8,-15,-2,-1.0,
Cc1cc(C)n2cc(CSCc3ccccc3)nc2n1,13%,6,-17,-7,3.9,
O=C(Nc1ccc(F)cc1)N(CCCN1CCOCC1)Cc1cc2cc3c(cc2[nH]c1=O)OCCO3,-12%,6,-30,-9,-1.2,
Cc1cccc(-n2c(CN3C(=O)c4ccccc4C3=O)nc3ccccc3c2=O)n1,x,x,-4,-1,x,
CCOC(=O)N1CCN(C(=O)CS(=O)(=O)Cc2nc(-c3ccccc3C)oc2C)CC1,0%,5,-4,-4,1.2,
NS(=O)(=O)c1ccc(NC(=O)CCC(=O)c2cccs2)cc1,x,x,x,5,-3.2,
O=C(COC(=O)C1CCN(C(=O)c2ccc(Cl)cc2)CC1)c1ccco1,-1%,1,-32,3,1.4,
COc1ccccc1OCCOc1ccc(/C=C2\C(=N)N3N=C(S(C)(=O)=O)SC3=NC2=O)cc1,x,x,x,5,-1.5,
CCN(CC(=O)NCc1ccc(Cl)cc1)C(=O)CCC(=O)c1ccc(C)cc1,x,x,x,-7,-2.4,
CC1CCN(C(=O)c2ccc(CNc3c(N4CCCC4)c(=O)c3=O)cc2)CC1,78%,x,x,100,0.1,
Cc1nc2ccccc2c2oc(C(=O)NCCN3CCN(C)CC3)cc12,-3%,1,-19,2,-0.6,Arbovirus inh repeat=0
COc1ccc(-c2noc(CCCc3ccccc3)n2)cc1OC,2%,-24,-32,11,6.3,
CCC(C)(C)N1CC(=O)N(Cc2ccccc2)C(c2ccc(OC)cc2)C1=O (stereo not drawn),-5%,-3,-42,-4,-0.2,
Cc1noc(C(=O)Nc2cc(Cl)ccc2O)c1Cl,x,x,x,2,-0.3,

# 5 compounds already listed, sorted by number of heavy atoms, low to high.
SMILES,Mtb growth,Arbovirus inh,YopH inh,Mtb bLac sens,RecA splice inh,others
COc1ccc(-c2noc(CCCc3ccccc3)n2)cc1OC,2%,-24,-32,11,6.3,
Cc1nc2ccccc2c2oc(C(=O)NCCN3CCN(C)CC3)cc12,-3%,1,-19,2,-0.6,Arbovirus inh repeat=0
CCN(CC(=O)NCc1ccc(Cl)cc1)C(=O)CCC(=O)c1ccc(C)cc1,x,x,x,-7,-2.4,
CCOC(=O)N1CCN(C(=O)CS(=O)(=O)Cc2nc(-c3ccccc3C)oc2C)CC1,0%,5,-4,-4,1.2,
COc1ccccc1OCCOc1ccc(/C=C2\C(=N)N3N=C(S(C)(=O)=O)SC3=NC2=O)cc1,x,x,x,5,-1.5,

# The listing picks up, starting 3 compounds before the break.
SMILES,Mtb growth,Arbovirus inh,YopH inh,Mtb bLac sens,RecA splice inh,others
COc1ccc(-c2noc(CCCc3ccccc3)n2)cc1OC,2%,-24,-32,11,6.3,
CCC(C)(C)N1CC(=O)N(Cc2ccccc2)C(c2ccc(OC)cc2)C1=O (stereo not drawn),-5%,-3,-42,-4,-0.2,
Cc1noc(C(=O)Nc2cc(Cl)ccc2O)c1Cl,x,x,x,2,-0.3,
Cc1cc2[nH]c(=O)c(=O)[nH]c2cc1S(=O)(=O)N1CCN(c2cccc(C(F)(F)F)c2)CC1,x,x,x,-1,0.0,
Cc1ccsc1C(=O)C1CCCN(Cc2cn(C)nc2-c2ccccc2)C1 (stereo not drawn),-6%,-2,x,-19,0.6,
Cc1c(CC(=O)O)c(=O)oc2c(C)c3occ(-c4ccc(F)cc4)c3cc12,x,x,x,5,-2.9,
CC1=C(C(=O)Nc2ccc(C(=O)N3CCN(c4ccccc4F)CC3)cc2)SCCO1,x,x,x,-1,4.6,
CN1CCN(/C=N/c2sc3c(c2C#N)CCCCC3)CC1,5%,-11,-37,65,0.6,
N#CC(=C1N=c2ccccc2=N1)c1c(O)[nH]c2ccccc12,3%,0,-6,x,x,
COCc1ccc(CN2CCc3c([nH]c4ccccc34)C2CC(C)C)o1 (stereo not drawn),1%,5,x,1,-6.6,
Cc1ccnc(NC(=O)CCC(=O)N(CC(=O)NCc2ccccc2)Cc2ccco2)c1,-5%,6,x,-6,1.0,
CCOc1ccc(CN2CCC(n3nccc3NC(=O)C3CC3)CC2)cc1CO,x,x,x,7,0.2,

# Screening results as filed in PubChem.
